PMP22 txn prim = PMP22 gene transcription modulation; Potency, µM (titrated, usually from 57.5 µM), for inactives: at the top dose activity change, negative = inhibition, most hits filed as inhibitors; 43,000 tested, 2% active; S16 Pmp22-F2sN Schwann cells (luciferase reporters placed in the Pmp22 gene), FLuc/NLuc coincidence luminescence, 24 h; active = clear falling dose curves in both reporters; inconclusive = both reporters move, but less clearly or upward; inactive = either reporter flat; the % is the NLuc reporter signal; further: on the % scale 0 is the no-effect control and ±100 the full control effect; some results filed as inactive show a strong effect at the top dose
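Luminescent read-out of sequential FLuc and NLuc signals from a reporter embedded in the Pmp22 3' UTR of S16 Schwann cells, taken after 24 h compound exposure at 37C; compounds reducing both signals score as inhibitors of expression.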
HTT prom inh = HTT promoter inhibition; HEK293 HTT promoter firefly luciferase reporter (activity 0% = vehicle and -100% = no light), 24 h; Potency, µM (top dose mostly 57.5 µM), for inactives: at the top dose activity change, negative = inhibition, most hits filed as inhibitors; 48,000 tested, 0.93% active; AID 1508623; active means well fitted inhibition curve with a large enough effect; inconclusive means small, poorly fitted or top-dose-only effect; inactive means no such curve, though single readings can be large or run the other way; further: nearly all actives have a fitted effect of over 50% in size
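HEK293 Fluc reporter, 2,500 cells/well, 24 h pre-culture; cpds up to 57.5 uM final, 24 h 37 degrees C; Dual-Glo, 10 min RT; normalized vehicle = 0%, zero RLU = -100%.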
Numbers without * were called inactive; ? = inconclusive; . = no result given; & = joins results of further samples; [ ] = remark or other dose. Potency means the concentration at half of the fitted maximal effect. The order is random; any-hit rate near 2.7%.

SMILES	PMP22 txn prim	HTT prom inh
CCc1nnc2c3ccccc3nc(N3CCN(c4cc(C)ccc4C)CC3)n12	?	?
Cc1ccn2c(Nc3c(C)cccc3C)c(-c3ccc(Cl)s3)nc2c1	-17%	-18%
Cc1ccc(NC(=O)CN2CCCN(Cc3cc(C)ccc3C)S2(=O)=O)c(Cl)c1	?	?
CCC(C)NC(=O)C1CCC(CNS(=O)(=O)c2cccc3nsnc23)CC1 (stereo unspecified)	6%	-15%[11.5 µM]
COCCNC(=O)c1nn(-c2ccc(Cl)cc2)nc1CO	-2%	9%
Clc1cccc(-n2ncc3c(N4CCN(Cc5ccccc5)CC4)ncnc32)c1	?	-10%
c1ccc2sc(SN3CCOCC3)nc2c1	.	5%
CCc1ccccc1NC(=O)COCc1cc(-c2ccco2)on1	-32%	11%
CCCCN(CC)C(=O)c1c[nH]c2ccc(S(=O)(=O)N(C)c3ccc(Cl)cc3)cc2c1=O	14%	-26%
Cc1cc(C)n(CCc2nc3c4ccccc4nc(N4CCN(c5ccc(F)cc5)CC4)n3n2)n1	?	-6%
CCc1ccc(NC(=O)c2ccc(F)c(S(=O)(=O)N3CCc4ccccc4C3)c2)cc1	-21%	25µM*
CC(C)CCNC(=O)C1CCN(c2nc3ccc(Cl)cc3[nH]2)CC1	-1%	-2%
COc1ccccc1NC(=O)c1c(NC(=O)c2ccco2)sc2c1CCC(C(C)(C)C)C2 (stereo unspecified)	5%	-9%
Cc1cc(NC(=O)C2=C(O)c3ccccc3S(=O)(=O)N2C)no1	.	6%
Cc1ccc(Cl)cc1N1CCN(C(=O)c2cn(C)c3ccc(S(=O)(=O)N4CCCC4)cc3c2=O)CC1	?	-30%
Cc1ccc(/C=C/c2nc3ccccc3n2S(=O)(=O)c2ccc(Br)cc2)cc1	?	2%
Cc1ccc(N2CCN(S(=O)(=O)c3cc(Br)cc4c3N(C(=O)C3CC3)CC4)CC2C)cc1 (stereo unspecified)	-26%	-2%
CN(C)S(=O)(=O)N(CC(=O)NCCSCc1cccc(Cl)c1)c1ccccc1	-9%	-29%
COc1ccccc1NC(=O)C(=O)NCC(c1ccc2c(c1)OCO2)N1CCOCC1 (stereo unspecified)	0%	-6%
O=C(O)COCCN1CCN(C(c2ccccc2)c2ccc(Cl)cc2)CC1 (stereo unspecified)	.	12%&7%
CCCCCn1c(=O)[nH]c2cc(C(=O)NCCN(C)CCCC)ccc2c1=O	?	-6%
CCS(=O)(=O)Nc1ccc(-c2cn3c(C)csc3n2)cc1	8%	?
CC(C)c1ccc2occ(CC(=O)Nc3ccccc3Cl)c2c1	?	-11%
CCCCN(C)CCCNC(=O)Cn1ncc2c3ccccc3n(Cc3cc(C)ccc3C)c2c1=O	?	?
CCCc1oc2ccc(NS(=O)(=O)c3ccc(OCC)cc3)cc2c1C(=O)OCC	?	?
More results follow:
SMILES	PMP22 txn prim	HTT prom inh
O=C(Nc1cccc(C(F)(F)F)c1)C1CCCN(S(=O)(=O)c2cccc3nonc23)C1 (stereo unspecified)	?	-6%
CCOC(=O)c1c(S(=O)(=O)N2CCCC(C(=O)NCc3ccccc3OC)C2)c(C)n(C)c1C (stereo unspecified)	-8%	-8%
O=C(NCC(c1cccnc1)N1CCc2ccccc2C1)C(=O)Nc1ccc(F)cc1F (stereo unspecified)	?	-19%
CCN1CCN(Cc2c(O)ccc3c(=O)c(Oc4ccccc4Cl)c(C(F)(F)F)oc23)CC1	0%	-17%
Cc1ccc(S(=O)(=O)c2cn(CC(=O)Nc3ccc4c(c3)OCO4)c3ccccc3c2=O)cc1C	-12%	-25%
CC(C)C(=O)Nc1ccc2nc(SCC(=O)N3CCc4ccccc43)sc2c1	?	?
COc1ccc(Nc2c3c(nc4ccc(NC(=O)/C=C/c5cc(OC)c(OC)c(OC)c5)cc24)CCCC3)cc1OC	?	32µM*
COc1cc(OC)cc(-c2nc3n(n2)C(c2ccccc2)C(C(N)=O)=C(C)N3)c1 (stereo unspecified)	-6%	-7%
Cc1ccc(C)c(Cn2c(=O)cc(C)c3c(C)nn(-c4cccc(F)c4)c32)c1	-8%	1%
COc1ccccc1-n1c(=O)c2c3c(sc2n(Cc2ccccc2F)c1=O)CN(C(C)=O)CC3	-17%	0%
Cc1ccccc1-c1noc(-c2cccnc2N(C)Cc2ccc(Cl)cc2)n1	-5%	-21%
COc1ccc2cc1Oc1cc3c(cc1OC)CC[N+](C)(C)[C@H]3Cc1ccc(cc1)Oc1c(OC)c(OC)cc3c1[C@@H](C2)[N+](C)(C)CC3	.	10%
Cc1ccc(C)c(NC(=O)CCc2c(C)n(C)c3cc(-c4ccccc4C)nn3c2=O)c1	1%	-10%
CC1(C)[C@H](C(=O)O)N2C(=O)C[C@H]2S1(=O)=O	.	6%&-3%
O=C(Cn1c(-c2cccs2)cc2cc(F)ccc21)NCCCN1CCN(c2ccc(F)cc2)CC1	?	?
Cc1cccc(Cn2c(COc3ccc(Cl)cc3)nc3ccccc32)c1	-39%	-21%
COc1ccc(N(CC(=O)N2CCN(c3ccc(F)cc3)CC2)S(=O)(=O)c2c(C)n[nH]c2C)cc1	-23%	-16%
Cc1ccc(NC(=O)C(=O)NCC(c2cccnc2)N2CCN(Cc3ccccc3)CC2)cc1C (stereo unspecified)	?	-27%
CC(C)c1nnc(NC(=O)c2nc(S(=O)(=O)Cc3ccccc3)ncc2Cl)s1	?	?
Cc1ccc(-c2nnn(CC(=O)N(CC(=O)NCCC(C)C)c3ccc(F)cc3)n2)cc1	25%	-9%
COc1ccc(Cl)cc1NC(=O)Cn1c(=O)n(-c2ccc(C)cc2)c(=O)c2ccc(C(=O)NCc3ccccc3Cl)cc21	10µM*	-20%
Cc1cc(C)c2c(CC(=O)N(Cc3ccc(Cl)cc3)Cc3ccco3)coc2c1	?	?
COc1cccc(C(=O)Nc2cccc(NC(=O)c3ccc(Cl)cc3Cl)c2)c1	-3%	4%
COc1ccc(NC(=O)c2ccco2)cc1NC(=O)COc1cc(C)cc(C)c1	?	?
CCCN(CCC)C(=O)Cn1c(=O)n(-c2ccc(Cl)c(Cl)c2)c(=O)c2c(C)c(C(=O)N(C)C)sc21	?	-5%

Another view of some results above.
Screens in order: PMP22 txn prim | HTT prom inh
CCOC(=O)c1c(S(=O)(=O)N2CCCC(C(=O)NCc3ccccc3OC)C2)c(C)n(C)c1C (stereo unspecified)
  -8% | -8%
COc1ccc2cc1Oc1cc3c(cc1OC)CC[N+](C)(C)[C@H]3Cc1ccc(cc1)Oc1c(OC)c(OC)cc3c1[C@@H](C2)[N+](C)(C)CC3
  . | 10%
COc1cc(OC)cc(-c2nc3n(n2)C(c2ccccc2)C(C(N)=O)=C(C)N3)c1 (stereo unspecified)
  -6% | -7%

Additional records.
SMILES	PMP22 txn prim	HTT prom inh
Cc1ccc2oc(=O)c3cnn(CC(=O)N(C)c4ccc(F)cc4)c3c2c1	-6%	-7%
Cc1ccc(-n2ncc3c(=O)n(Cc4cccc(C(F)(F)F)c4)cnc32)cc1C	-8%	-15%
CCOC(=O)c1cccc(NC(=O)C2CCN(S(=O)(=O)c3c(C)noc3/C=C/c3ccc(C)cc3)CC2)c1	?	?
O=C(C1CCC(Cn2c(=O)c3sccc3n(Cc3ccccc3F)c2=O)CC1)N1CCCCC1 (stereo unspecified)	?	-17%
CCOc1ccc(C(c2c(O)cc(C)n(CCOC)c2=O)N2CCN(c3ccccc3F)CC2)cc1 (stereo unspecified)	-13%	1%
COc1ccc(NC(=O)c2sc3nc(C)c(C(=O)Nc4ccc(C)cc4C)c(-c4sccc4C)c3c2N)cc1	10%	-19%
Cc1cc2c(cc3c(SCc4nc(-c5ccccc5)oc4C)nnc(C)n32)o1	-26%	-15%
CCC(=O)N1c2ccccc2CC1C(=O)NCCc1ccccc1Cl (stereo unspecified)	-38%	-11%
Cc1ccc(Oc2coc3cc(OCC(=O)NC4CCCCC4)ccc3c2=O)cc1	-3%	-16%
CCCCNC(=O)CSc1nc2n[nH]c(C)c2c(=N)n1-c1ccccc1CC	?	-23%
NC(=O)NC1N=C([O][Al])NC1=O (stereo unspecified)	.	4%
COC(=O)Cn1c(=O)c2c(nc3n2CCN3c2cccc(C)c2)n(C)c1=O	5%	1%
CCOC(=O)CSc1nc2c(sc3ccccc32)c(=O)n1Cc1ccc(OC)cc1	?	-8%
COc1ccccc1C(=O)NCCn1cc(SCC(=O)Nc2ccccc2F)c2ccccc21	?	?
COc1ccc(C(=O)N2CC(=O)Nc3ccc(C)cc3C2c2ccccc2)cc1OC (stereo unspecified)	-17%	-19%
CCOC(=O)c1ccc(N2C(=O)c3n[nH]c(-c4ccco4)c3C2c2ccc(OC)cc2OC)cc1 (stereo unspecified)	?	?
COc1cccc(-c2nc(SCC(=O)NC3CCCC3)c(-c3ccccc3)[nH]2)c1	-17%	?
CCOc1cccc(C2c3c(oc4ccc(F)cc4c3=O)C(=O)N2c2cc(C)ccn2)c1 (stereo unspecified)	7%	2%
CCN(C(=O)c1cc(S(=O)(=O)N2CCCC2)cn1C)c1ccc(OC)cc1	-20%	15%
CCOC(=O)c1c(C)[nH]c(C)c1S(=O)(=O)N(C)CC(=O)NCc1ccc(C)cc1	21%	-33%
Cc1c(C(=O)Nc2ccccc2F)sc2ncnc(N(C)C3CCCCC3)c12	6%	-20%
COc1ccc(S(=O)(=O)N(C(=O)c2ccncc2)c2ccc3oc(C)c(C(C)=O)c3c2)cc1	13µM*	14µM*
CCCS(=O)(=O)Nc1cc(-c2cn3ccc(C)cc3n2)ccc1C	-4%	49%[activator]
Cc1cc(C)cc(NC(=O)CSc2oc(-c3ccccc3)nc2S(=O)(=O)c2ccc(Cl)cc2)c1	0%	-15%
CCN1CCN(C(c2ccc(SC)cc2)c2c(O)cc(C)n(CCOC)c2=O)CC1 (stereo unspecified)	0%	-12%

Of the compounds above, these have an aryl thioether with sulfur outside any ring.
SMILES	PMP22 txn prim	HTT prom inh
CC(C)C(=O)Nc1ccc2nc(SCC(=O)N3CCc4ccccc43)sc2c1	?	?
Cc1cc2c(cc3c(SCc4nc(-c5ccccc5)oc4C)nnc(C)n32)o1	-26%	-15%
CCCCNC(=O)CSc1nc2n[nH]c(C)c2c(=N)n1-c1ccccc1CC	?	-23%
CCOC(=O)CSc1nc2c(sc3ccccc32)c(=O)n1Cc1ccc(OC)cc1	?	-8%
COc1ccccc1C(=O)NCCn1cc(SCC(=O)Nc2ccccc2F)c2ccccc21	?	?
COc1cccc(-c2nc(SCC(=O)NC3CCCC3)c(-c3ccccc3)[nH]2)c1	-17%	?
Cc1cc(C)cc(NC(=O)CSc2oc(-c3ccccc3)nc2S(=O)(=O)c2ccc(Cl)cc2)c1	0%	-15%
CCN1CCN(C(c2ccc(SC)cc2)c2c(O)cc(C)n(CCOC)c2=O)CC1 (stereo unspecified)	0%	-12%

New compounds follow.
SMILES	PMP22 txn prim	HTT prom inh
CCn1c(CNC(=O)c2ccc(OC)cc2)nnc1SCC(=O)Nc1cc(C)ccc1C	-49%	-16%
Cc1c(C(=O)N2CCC(C)CC2)c(S(=O)(=O)N2CCN(c3ccc(Cl)cc3)CC2)c(C)n1C	7%	-21%
CCOC(=O)c1ccccc1NC(=O)c1c(C)oc2ncnc(N3CCOCC3)c12	?	-5%
Cc1ccc(-c2cc(N)n3nc(-c4ccc(C)cc4)cc3n2)cc1	-17%	-11%
COc1cc(NC(=O)CC(C)S(=O)(=O)c2cc3c4c(c2)CCN4C(=O)CC3)cc(OC)c1 (stereo unspecified)	-18%	-2%
CCc1c(C)sc2c1CCN(Cc1ccccc1F)C2c1ccccc1 (stereo unspecified)	3.4µM*	?
COc1ccccc1Cn1cc(C(=O)c2ccc(C)cc2)c(=O)c2cc(F)cc(F)c21	-2%	5%
CC1=C(C(=O)N2CCCCC2)C(c2ccc(Cl)cc2)n2c(nc3ccccc32)N1 (stereo unspecified)	?	-5%
O=c1cc(CN2CCOCC2)occ1OCCCCCSc1ccnc2cc(C(F)(F)F)ccc12	.	?
O=C(NCCCN1CCOCC1)c1ccc2c(c1)N(Cc1ccccc1)C(=O)c1ccccc1S2	-27%	-21%
O=C(O)C(Cc1cc(I)c(O)c(I)c1)c1ccccc1 (stereo unspecified)	.	-11%
O=C1c2[nH]nc(-c3ccccc3O)c2C(c2cccc(OCc3ccccc3)c2)N1CCCO (stereo unspecified)	?	?
COc1cccc(NC(=O)C(=O)NCCc2csc(-c3ccc(C(F)(F)F)cc3)n2)c1	?	60%[activator]
COc1cc(CNCCSc2nnnn2C)ccc1OCc1ccc(F)cc1	-52%	-2%
COc1ccc(S(=O)(=O)NCc2cccn2Cc2cccc(C)c2)cc1OC	?	-18%
CC(=O)c1ccc(N2C(=O)N(CC(=O)c3ccc(F)cc3)c3ccccc3S2(=O)=O)cc1	-4%	-17%
O=C(c1ccc2c(c1)CCCC2)N1CCN(c2nc3c(F)cccc3s2)CC1	1%	-9%
Cc1ccc(CN2C(=O)SC(Nc3ccccc3)C2=O)cc1 (stereo unspecified)	2%	-13%

Screening data from PubChem.
